Env fusion inh = inhibitors of HIV-1 Env-driven cell-cell fusion, primary screen, HeLa-JRFL effector, CEM21 target cells, luciferase; inhibition, % at 12.3 µM; hit rate 1.1% among 360,000; AID 651610, 2012;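 active = mean replicate inhibition score of at least 50 and every replicate individually at or above 50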;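 note: 0% = plate neutral controls and 100% = maraviroc near 300 nM; one replicate is shown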
* = called active by the depositor; [ ] = another dose, or the depositor's remark. Not all compounds are listed; the hit share may differ from the screen's.

no. | canonical_smiles | Env fusion inh
1 | C[C@H](CO)N1C[C@H](C)[C@@H](CN(C)C(=O)c2ccncc2)OCc2ccccc2-c2c(n(C)c3ccccc23)C1=O | -2[16.7 µM]
2 | COC(=O)Cc1nnn2c1[C@@H](C)[C@@H](c1ccccc1Br)O[C@@H](C)C2 | 59*
3 | C[C@@H]1CN([C@@H](C)CO)C(=O)c2cc(C#CC3CCCCC3)cnc2O[C@@H]1CN(C)Cc1cccnc1 | -3[16.7 µM]
4 | COC(=O)c1cc2c(c3c4ccccc4n(S(=O)(=O)c4ccc(C)cc4)c13)C(=O)N(C)C2 | 10
5 | CO[C@@H]1CN(C)C(=O)c2ccc(NC(=O)C3CCOCC3)cc2OC[C@@H](C)NC[C@H]1C | -16[16.7 µM]
6 | CNC[C@@H]1OCCCC[C@@H](C)Oc2ccc(NC(=O)Nc3cccc4ccccc34)cc2C(=O)N([C@H](C)CO)C[C@@H]1C | 1[16.7 µM]
7 | COC(=O)C[C@H]1CC[C@H]2[C@@H](COC[C@@H](O)CN2S(=O)(=O)c2cn(C)cn2)O1 | -1[16.7 µM]
8 | C=CCN1[C@H](C)[C@H](c2ccccc2)Oc2cc(Br)ccc2S1(=O)=O | 0
9 | COc1ccccc1CNC(=O)C[C@@H]1CC[C@@H]2[C@H](COC[C@H](O)CN2C(=O)Nc2ccc(F)cc2)O1 | -12[16.7 µM]
10 | CCCN1C[C@@H](C)[C@H](OC)CN(C)C(=O)c2cc(NC(=O)Nc3cccc(F)c3)ccc2OC[C@@H]1C | 12[16.7 µM]
11 | O=C(C[C@H]1CC[C@@H]2[C@H](COC[C@H](O)CN2Cc2ccc(Oc3ccccc3)cc2)O1)Nc1nccs1 | 36[16.7 µM]
12 | CO[C@H]1CN(C)C(=O)c2cc(NS(=O)(=O)c3c(C)noc3C)ccc2OC[C@@H](C)NC[C@@H]1C | 5[16.7 µM]
13 | O=C(NCc1ccccc1)[C@@H]1CCCN1C(=O)[C@H]1CCCN1C(=O)c1cccc(Cl)c1 | -18
14 | C[C@H](NC(=O)N(C)C[C@H]1OCc2ccccc2-c2ccccc2C(=O)N([C@H](C)CO)C[C@H]1C)c1ccccc1 | -26[16.7 µM]
15 | O=C(NCC[C@@H]1CC[C@H](NS(=O)(=O)Cc2ccccc2)[C@H](CO)O1)C1CCC1 | 13[16.7 µM]
16 | CN1c2ccc(-c3cccc(F)c3)cc2[C@@H]2[C@@H](CCN2C(=O)C2CCC2)[C@H]1CO | 10[16.7 µM]
17 | CO[C@@H]1CN(C)C(=O)c2ccc(NC(=O)NC(C)C)cc2OC[C@@H](C)N(C(=O)CC2CC2)C[C@H]1C | -1[16.7 µM]
18 | CO[C@H]1CN(C)C(=O)c2cc(NC(=O)Nc3cccc(F)c3)ccc2OC[C@@H](C)N(C(=O)Nc2c(C)noc2C)C[C@H]1C | 7[16.7 µM]
19 | CO[C@@H]1CN(C)C(=O)c2cc(NC(=O)Nc3ccc(C(F)(F)F)cc3)ccc2OC[C@H](C)NC[C@@H]1C | 7[16.7 µM]
20 | COC(=O)[C@]12CCCCC=C1N(Cc1ccc(Cl)cc1Cl)C(=O)[C@H](CC(=O)NCCCCc1ccccc1)C2 | -4
21 | O=C(NCc1ccccc1)[C@H]1CCCN1C(=O)[C@H]1CCCN1C(=O)c1ccc(F)cc1F | -23
22 | COCCNC(=O)C[C@H]1CC[C@H]2[C@H](COc3ccc(NC(=O)Cc4ccccc4)cc3C(=O)N2C)O1 | -6[16.7 µM]
23 | O=C(C[C@H]1CC[C@H](NC(=O)CCN2CCCCC2)[C@@H](CO)O1)Nc1ccccc1 | -21[16.7 µM]
24 | C[C@@H]1CN([C@H](C)CO)C(=O)c2cc(NC(=O)c3ccncc3)ccc2O[C@@H](C)CCCCO[C@H]1CN(C)Cc1ccccc1 | 12[16.7 µM]
25 | CO[C@@H]1CN(C)C(=O)c2cc(NC(=O)CC(F)(F)F)ccc2OC[C@@H](C)N(C(=O)C2CCOCC2)C[C@H]1C | 5[16.7 µM]
26 | CCCNC(=O)Nc1ccc2c(c1)C(=O)N(C)C[C@H](OC)[C@H](C)CN(C(=O)C1CCCCC1)[C@H](C)CO2 | 1[16.7 µM]
27 | COCC(=O)Nc1ccc2c(c1)OC[C@H](C)N(C(=O)C1CCCC1)C[C@@H](C)[C@H](OC)CN(C)C2=O | 5[16.7 µM]
28 | OC(c1ccccc1)(c1ccccc1)C1CCN(CCCOc2ccc(-c3cncnc3)cc2)CC1 | 40
29 | O=C(N[C@H](C(=O)N1CCC[C@H]1C(=O)NCCc1ccccc1Cl)c1ccccc1)c1ccccc1 | 8
30 | C[C@H](NC(=O)C[C@@H]1CC[C@@H](NC(=O)c2cccnc2)[C@H](CO)O1)c1ccccc1 | 4[16.7 µM]
31 | COc1ccc(CNC(=O)C[C@H]2CC[C@H]3[C@H](COc4ccc(NC(=O)C(C)C)cc4C(=O)N3C)O2)cc1 | 13[16.7 µM]
32 | COc1cccc(CNC(=O)[C@H]2CCCN2C(=O)[C@H]2CCCN2C(=O)c2ccc(C)cc2)c1 | 9
33 | C[C@@H]1CN([C@H](C)CO)C(=O)c2ccccc2-c2ccccc2CO[C@H]1CN(C)C(=O)Nc1ccnc(N2CCOCC2)c1 | -19[16.7 µM]
34 | CCc1cc2c(nc1CC)CCCN2CCOC | 3
35 | Cc1cccc(C2=CC(=O)CC(C)(C)C2=O)c1 | 11
36 | O=C(C[C@H]1CC[C@@H]2[C@H](COC[C@@H](O)CN2Cc2ccc3c(c2)OCO3)O1)N1CCCCC1 | -5[16.7 µM]
37 | Cc1noc(C)c1S(=O)(=O)N(C)C[C@@H]1Oc2ccc(NC(=O)Nc3ccccc3)cc2CC(=O)N([C@@H](C)CO)C[C@@H]1C | 85*[16.7 µM]
38 | COc1ccc2c3c([nH]c2c1)[C@H](CO)N(C(=O)CN1CCOCC1)CC31CN(CC2CCCC2)C1 | 5[16.7 µM]
39 | Cc1ccc(S(=O)(=O)N2CCCc3nc(-c4ccc(Br)cc4)ccc32)cc1 | -26
40 | COc1ccc2c3c(n(C)c2c1)[C@H](CO)N(Cc1ccccc1)CC31CCN(S(C)(=O)=O)CC1 | 26[16.7 µM]
41 | CCCNC(=O)C[C@@H]1CC[C@H]2[C@@H](COC[C@H](O)CN2C(=O)Nc2ccc(Cl)c(Cl)c2)O1 | 6[16.7 µM]
42 | O=C(C[C@@H]1CC[C@@H]2NC[C@H](O)COC[C@H]2O1)NCCN1CCCCC1 | -14[16.7 µM]
43 | O=c1ccn2c(n1)OC1CC2OC1COC(c1ccccc1)(c1ccccc1)c1ccccc1 (stereo not given) | -19
44 | COC(=O)C1=C(C)N(Cc2cccc(C(F)(F)F)c2)C(=NCc2cc(OC)c(OC)c(OC)c2)NC1CCc1ccccc1 (stereo not given) | -146
45 | CCC(=O)N1CC2(C1)CN(Cc1ccc(Cl)cc1)[C@H](CO)c1[nH]c3cc(OC)ccc3c12 | -201[16.7 µM]
46 | C[C@H](CO)N1C[C@H](C)[C@H](CN(C)Cc2ccccc2)OCc2cnnn2CCCC1=O | -6[16.7 µM]
47 | C[C@@H]1CN([C@H](C)CO)C(=O)Cc2cc(NC(=O)Cn3cnnn3)ccc2O[C@H]1CN(C)C(=O)Nc1ccc(F)cc1 | -9[16.7 µM]
48 | CC(C)NC(=O)Nc1ccc2c(c1)C(=O)N([C@@H](C)CO)C[C@H](C)[C@@H](CN(C)CC1CCCCC1)OCCCC[C@H](C)O2 | -3[16.7 µM]

Reprinted from the part before: two compounds, followed by the next part.
no. | canonical_smiles | Env fusion inh
47 | C[C@@H]1CN([C@H](C)CO)C(=O)Cc2cc(NC(=O)Cn3cnnn3)ccc2O[C@H]1CN(C)C(=O)Nc1ccc(F)cc1 | -9[16.7 µM]
48 | CC(C)NC(=O)Nc1ccc2c(c1)C(=O)N([C@@H](C)CO)C[C@H](C)[C@@H](CN(C)CC1CCCCC1)OCCCC[C@H](C)O2 | -3[16.7 µM]
49 | C[C@@H]1CN([C@@H](C)CO)C(=O)Cc2cc(NC(=O)Nc3cccc4ccccc34)ccc2O[C@@H]1CN(C)Cc1ccncc1 | -19[16.7 µM]
50 | CNC[C@H]1Oc2ncc(-c3ccc(OC)cc3)cc2C(=O)N([C@@H](C)CO)C[C@@H]1C | -7[16.7 µM]
51 | C[C@@H]1CN([C@@H](C)CO)C(=O)Cc2cc(NC(=O)Cn3cnnn3)ccc2O[C@@H]1CN(C)C(=O)Nc1ccc(F)cc1 | -9[16.7 µM]
52 | Cc1ccc2nc(-c3ccc(CN4CCC(c5nc6ccccc6[nH]5)CC4)cc3)c(-c3ccccc3)nc2c1 | 26
53 | C[C@H]1CN([C@@H](C)CO)C(=O)c2ccccc2-c2ccccc2CO[C@H]1CN(C)C(=O)Nc1ccnc(N2CCOCC2)c1 | -7[16.7 µM]
54 | C/C=C/c1cnc2c(c1)C(=O)N([C@@H](C)CO)C[C@H](C)[C@@H](CN(C)C(=O)C1CCC1)O2 | -17[16.7 µM]
55 | COc1ccccc1S(=O)(=O)Nc1ccc2c(c1)C(=O)N(C)C[C@@H](OC)[C@H](C)CN[C@@H](C)CO2 | 6[16.7 µM]
56 | COC(=O)c1cc2c(c3c4cc(F)ccc4n(C(=O)c4ccccc4)c13)C(=O)N(C1CCCCC1)C2 | 3
57 | C[C@@H]1CN([C@@H](C)CO)C(=O)c2cc(NS(=O)(=O)c3ccc(F)cc3)ccc2O[C@H]1CN(C)S(=O)(=O)c1cn(C)cn1 | -39[16.7 µM]
58 | CC(C)CC#Cc1ccc2c(c1)O[C@H](CN(C)C(=O)C1CC1)[C@H](C)CN([C@H](C)CO)S2(=O)=O | 16[16.7 µM]
59 | CN1c2ccc(C3=CCCCC3)cc2[C@H]2[C@H](CCN2C(=O)C2CCCCC2)[C@H]1CO | 34[16.7 µM]
60 | CC1(C)OC(=O)C2=C(CC(CCc3ccccc3)OC2c2ccc(F)cc2)O1 (stereo not given) | -45
61 | C[C@H]1CCCCO[C@H](CN(C)C(=O)C2CCCCC2)[C@@H](C)CN([C@@H](C)CO)C(=O)c2cc(N(C)C)ccc2O1 | -3[16.7 µM]
62 | CNC[C@@H]1OCCCC[C@H](C)Oc2ccc(NC(=O)Nc3c(C)noc3C)cc2C(=O)N([C@H](C)CO)C[C@H]1C | 10[16.7 µM]
63 | N[C@H]1CC[C@H](CCn2cc(-c3ccccn3)nn2)O[C@@H]1CO | -5[16.7 µM]
64 | C[C@@H]1CCCCO[C@@H](CN(C)C(=O)Nc2ccc3c(c2)OCO3)[C@H](C)CN([C@H](C)CO)C(=O)c2cc(N(C)C)ccc2O1 | -5[16.7 µM]

A few values from the entries so far.
cpd 60 in Env fusion inh → -45
cpd 63 in Env fusion inh → -5[16.7 µM]

Following part:
no. | canonical_smiles | Env fusion inh
65 | C[C@@H]1CN([C@H](C)CO)C(=O)c2cccc(NC(=O)Nc3ccc(C(F)(F)F)cc3)c2O[C@@H]1CN(C)S(=O)(=O)c1ccccc1 | -2[16.7 µM]
66 | CCCC(=O)Nc1ccc2c(c1)C(=O)N(C)C[C@@H](OC)[C@@H](C)CN(Cc1nccs1)[C@@H](C)CO2 | 58*[16.7 µM]
67 | C[C@@H]1CN([C@H](C)CO)C(=O)c2cc(-c3cccnc3)cnc2O[C@@H]1CN(C)Cc1ccccc1 | 7[16.7 µM]
68 | CC(C)NC(=O)Nc1ccc2c(c1)C(=O)N([C@H](C)CO)C[C@H](C)[C@@H](CN(C)Cc1ccc(-c3ccccc3)cc1)O2 | 5[16.7 µM]
69 | COC(=O)N1C[C@@H]2Oc3nccnc3O[C@@H]2C[C@@H]1c1ccccc1Br | -15
70 | CNC(=O)C[C@H]1CC[C@H]2[C@@H](COC[C@@H](O)CN2Cc2ccc(Cl)c(Cl)c2)O1 | 6[16.7 µM]
71 | COc1ccc(OCCCN2CCC(C(O)(c3ccccc3)c3ccccc3)CC2)cc1 | 7
72 | Cc1nn(C)cc1NC(=O)C[C@H]1CC[C@H]2[C@H](COc3ccc(NC(=O)C4CCC4)cc3C(=O)N2C)O1 | 14[16.7 µM]

Sorted by SMILES length (low to high): part of the list above.
no. | canonical_smiles | Env fusion inh
71 | COc1ccc(OCCCN2CCC(C(O)(c3ccccc3)c3ccccc3)CC2)cc1 | 7
67 | C[C@@H]1CN([C@H](C)CO)C(=O)c2cc(-c3cccnc3)cnc2O[C@@H]1CN(C)Cc1ccccc1 | 7[16.7 µM]
66 | CCCC(=O)Nc1ccc2c(c1)C(=O)N(C)C[C@@H](OC)[C@@H](C)CN(Cc1nccs1)[C@@H](C)CO2 | 58*[16.7 µM]
68 | CC(C)NC(=O)Nc1ccc2c(c1)C(=O)N([C@H](C)CO)C[C@H](C)[C@@H](CN(C)Cc1ccc(-c3ccccc3)cc1)O2 | 5[16.7 µM]
65 | C[C@@H]1CN([C@H](C)CO)C(=O)c2cccc(NC(=O)Nc3ccc(C(F)(F)F)cc3)c2O[C@@H]1CN(C)S(=O)(=O)c1ccccc1 | -2[16.7 µM]

Next structures follow:
no. | canonical_smiles | Env fusion inh
73 | COc1ccccc1C(=O)Nc1ccc2c(c1)OC[C@@H](C)N(C(C)=O)C[C@@H](C)[C@@H](OC)CN(C)C2=O | 3[16.7 µM]
74 | C[C@H]1CN([C@@H](C)CO)C(=O)Cc2cc(NS(C)(=O)=O)ccc2O[C@@H]1CN(C)Cc1ccc(-c2ccccc2)cc1 | 3[16.7 µM]
75 | COc1cccc(S(=O)(=O)Nc2ccc3c(c2)[C@@H]2C[C@@H](CC(=O)NCc4ccccc4F)O[C@@H](CO)[C@@H]2O3)c1 | -208[16.7 µM]
76 | CN(C)CC(=O)Nc1ccc2c(c1)[C@H]1C[C@H](CC(=O)N3CCc4ccccc4C3)O[C@@H](CO)[C@H]1O2 | 0[16.7 µM]
77 | COc1ccc(-c2ccc3n(c2=O)C[C@@H]2[C@@H](CO)[C@H](C(=O)N(C)C)[C@H]3N2C(=O)c2cnccn2)cc1 | 33[16.7 µM]
78 | CN1CCN(C(=O)C[C@H]2CC[C@H]3[C@H](COc4ccc(NC(=O)c5cscn5)cc4C(=O)N3C)O2)CC1 | -5[16.7 µM]
79 | COc1cc(N/C(=C\C(=O)c2ccccc2)c2ccccc2)ccc1Cl | 28
80 | CCC(=O)Nc1ccc2c(c1)C(=O)N(C)C[C@@H](OC)[C@@H](C)CN(Cc1ccncc1)[C@H](C)CO2 | -5[16.7 µM]
81 | COCC(=O)Nc1ccc2c(c1)[C@H]1C[C@@H](CC(=O)NCc3ccccc3F)O[C@@H](CO)[C@H]1O2 | -7[16.7 µM]

Screening data as filed in PubChem BioAssay.
